# Rango complex inh: inhibitors of Rango-importin beta complex formation; AID 540263; Q14974; Potency, µM (titrated, usually from 92.2 µM), without a hit: at the top dose inhibition of complex formation; Rango CFP/YFP FRET sensor + importin beta, 45 min; actives 0.031% (n = 340,000); active = rising FRET ratio curve, often small or poorly fitted; inconclusive = mostly compound fluorescence or quenching in the first reads; inactive = flat curves in all reads;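 further: potency means the concentration at half of the fitted maximal effect; 0% = DMSO wells and 100% = buffer wells lacking importin beta; nearly all actives have a fitted effect of over 15% in size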
#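 Inhibition scored from the CFP 486 nm/YFP 530 nm FRET ratio 45 min after adding 0.125 microM importin beta to 50 nM Rango biosensor preincubated 5 min with compound (room temperature, PBS with DTT, Tween-20, BSA). No-importin wells as positive control.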
# miR-21 reporter: raises the signal of a miR-21 reporter. Potency, µM (top dose mostly 38.3 µM), for the others: at the top dose reporter change, positive = more light. AID 2288. HeLa miR-21 FLuc reporter, luciferase, 48 h. 340,000 tested, under 10 active; active = well fitted rising curve with a large enough effect; inconclusive = small, poorly fitted or top-dose-only effect; inactive = no such curve, though single readings can be large or run the other way;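 further: % of control where 0% means no effect; miR-21 action dims this reporter so a rising signal means less miR-21 action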
#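 Luminescence from a firefly luciferase reporter carrying a miR-21 binding site downstream, stably expressed under a CMV promoter in HeLa cells that make miR-21 endogenously, reports miRNA modulation after 48 h compound exposure up to approximately 40uM final.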
# GLA inh pH 4.5: inhibitors of human alpha-galactosidase A at pH 4.5 | activity change, negative = inhibition, % at 105 µM | 230,000 tested, under 10 active | P06280 | purified enzyme, 4-MU-alpha-Gal fluorescence, pH 4.5; inconclusive = small, poorly fitted or top-dose-only inhibition, or a rising curve; inactive = flat fitted curve, though single readings scatter; no compound was filed as active;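 further: 0% = full activity with enzyme and -100% = basal without enzyme; dose as in the result columns while the protocol names 77 µM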
# Target sequence (P06280 whole entry, looked up): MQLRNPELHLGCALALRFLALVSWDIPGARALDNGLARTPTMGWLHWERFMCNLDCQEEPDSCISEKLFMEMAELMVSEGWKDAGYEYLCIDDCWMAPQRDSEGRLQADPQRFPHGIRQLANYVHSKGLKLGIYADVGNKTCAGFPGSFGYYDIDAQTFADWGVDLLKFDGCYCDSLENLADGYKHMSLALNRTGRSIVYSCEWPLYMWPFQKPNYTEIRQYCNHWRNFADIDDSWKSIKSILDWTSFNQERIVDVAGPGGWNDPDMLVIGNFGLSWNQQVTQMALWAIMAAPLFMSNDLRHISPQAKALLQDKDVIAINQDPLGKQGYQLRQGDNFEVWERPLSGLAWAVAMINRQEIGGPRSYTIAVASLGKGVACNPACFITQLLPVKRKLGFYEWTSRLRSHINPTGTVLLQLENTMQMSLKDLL
# Rango dissoc inh: prevents RanGTP from dissociating the Rango-importin beta complex; O95149+P62826; Biochemical FRET Rango-importin beta, RanGTP-induced dissociation; Potency, µM (doses to about 46.1 µM), without a hit: top-dose activity change, negative = inhibition; actives 0.071% (n = 340,000); active means falling FRET ratio curve, often poorly fitted, with flat reads before Ran was added; inconclusive means other falling curves, or compound fluorescence or quenching; inactive means flat or rising ratio curve;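 further: potency means the concentration at half of the fitted maximal effect; % of control where 0% means no effect; nearly all actives have a fitted effect of over 45% in size; -100% = wells without RanGTP and RCC1; the record marks most hits as doubtful in a second field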
#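 Compounds sat 5 min at room temperature with 0.1 uM Rango biosensor plus 0.25 uM importin beta, then FRET pre-read. RanGTP-RCC1 (0.6 uM Ran, 2mM GTP, 0.2 uM RCC1) added for 45 min, and the CFP/YFP post-read measured blocked complex dissociation.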
# Starred values were filed as active, the others as inactive; ? = inconclusive; · = no result given; & = joins results of further samples; [ ] = remark or other dose. This is a subset, so the mix of outcomes need not match the whole.
SMILES,Rango complex inh,miR-21 reporter,GLA inh pH 4.5,Rango dissoc inh
O=C(CCn1cncn1)N1CCCC(N2CCN(c3cccc(C(F)(F)F)c3)CC2)C1 (configuration not stated),0.4%,-2%,·,-13%
COc1cccc(CNc2ccccc2O)c1OCc1ccccc1F,0.4%,-12%,-12,3%
CCOC(=O)N1CCN(c2ccc(Cl)c(Cl)c2)CC1,-2.7%,-1%,4,-4%
c1ccc(CN2CCOCCOCCOCCOCC2)cc1,-0.1%,-13%,4,1%
CC[C@](C)(O)c1cc2ccccc2c(=O)o1,-0.9%,·,·,28%
C=CCNc1cc(C)oc(=O)c1C(=O)CC,6.4%,-1%,1[21.1 µM],28%
CC(C)CCNC(=O)c1ccccc1NC(=O)C1=CSCCO1,-1.9%,-3%,·,-6%
CS(=O)(=O)N1CCC(Oc2ccccc2C(=O)N2CCC[C@H]2CO)CC1,-1.1%,-12%,·,-14%
COc1ccc(C2CC(=O)NC3=C2C(=O)CCC3)cc1Cl (configuration not stated),-4.3%,-3%,-3,2%
Cc1ccc(C)c(OCC(=O)NC2CCCCCC2)c1,1.4%,-25%,·,1%
Nc1ccc(C(=O)OCCCc2nc3ccccc3[nH]2)cc1,4.2%,-9%,4,13%
COc1ccc(NC(=S)N2CCN(C(=O)C3CCCO3)CC2)c(OC)c1 (configuration not stated),-1.5%,-4%,0,-17%
CC(C)CN(C(=O)CN1CCN(c2ccc(O)cc2)CC1)c1c(N)n(CC(C)C)c(=O)[nH]c1=O,-4.6%,-1%,-1,20%
COc1ccc(OC)c(NC(=O)c2ccc(OCC(=O)N3CCOCC3)c(OC)c2)c1,0.1%,·,·,10%
COc1ccccc1NC(=O)COC(=O)c1ccc(N2CCCC2=O)cc1,-0.4%,·,·,-3%
CN(C)CCN1C(=O)c2ccccc2C1=O,-5.4%,·,·,43%
O=C(CN(CC1CCCO1)C(=O)CNS(=O)(=O)c1ccc(F)cc1)NC1CCCCC1 (configuration not stated),-4.7%,2%,·,19%
O=Cc1cccc(Oc2ncccn2)c1,2.5%,0%,0,-3%
Cc1cc(C)c(OCC(O)CN2CCN(c3ccccn3)CC2)c(C)c1 (configuration not stated),-4.5%,-2%,6,?
COc1ccc(-n2nc(C(=O)NCC(=O)N3CCN(c4ccccn4)CC3)c3ccccc3c2=O)cc1,?,-15%,-16,-1%
O=C(c1ccc(S(=O)(=O)Nc2ccccc2F)cc1)N1CCCC1,-0.5%,·,·,2%
CNc1ncnc2c1ncn2-c1ccccc1,-0.9%,·,·,16%
O=C(CCC(=O)Nc1ccc(Cl)cc1Cl)NNC(=O)[C@@H]1CCCC[C@@H]1C(=O)O,1.5%,-1%,1,-8%
Cc1ccccc1NC(=O)COC(=O)CNC(=O)c1sc2ccccc2c1Cl,0.1%,-6%,-6,11%
NC(=O)c1ccsc1NC(=O)COC(=O)c1ccccn1,-2.0%,·,·,2%
CCc1ccc(Nc2cnn(C34CC5CC(CC(CC(=O)O)(C5)C3)C4)c(=O)c2Cl)cc1,0.1%,-3%,-3,-2%
CSC(=S)N/N=C/c1ccc(Br)cc1,-1.2%,0%,-15,1%
CC(=O)c1ccc(N2CCN(C(=O)CCCn3c(=O)[nH]c4ccsc4c3=O)CC2)cc1,1.8%,3%&-4%,·,30%
O=C(NC1CCCCC1)C(c1ccc(F)cc1)N(CCCN1CCOCC1)C(=O)c1ccc(CN2CCOCC2)o1 (configuration not stated),-0.2%,-2%,·,-6%
N#CC1=C(N)N(c2ccccc2Sc2ccccc2)C(=O)C1,-0.4%,-4%,-3,-1%
Cc1cc(C(=O)CSc2nnc(-c3ccccc3)n2Cc2ccc3c(c2)OCO3)c(C)n1C,1.5%,-4%,0,-3%
COc1ccc(S(=O)(=O)N2CCOCC2)cc1NC(=O)CN1CCN(C)CC1,9.3%,·,·,18%
COc1ccc(N(CC(=O)N/N=C/c2ccc(OC)cc2OC)S(=O)(=O)c2ccccc2)cc1,1.6%,1%,·,23%
Cc1cc(C)n2c(SCC(=O)Nc3ccc(F)cc3)nnc2n1,2.3%,-3%,-7,-1%
O=C(c1ccc2ccccc2c1)N1CCOCC1,3.2%,·,·,?
Cc1ccccc1CC1SC(N)=NC1=O (configuration not stated),-4.0%,-7%,·,16%
COc1ccc(CCC(=O)OCC(=O)NCc2ccccc2)cc1,4.4%,·,·,-6%
CCN(CC)S(=O)(=O)c1cc(C(=O)Nc2cc(Cl)ccc2N2CCN(C)CC2)ccc1Cl,0.1%,16%,-3,-6%
CCOC(=O)C1CCC(=O)C1 (configuration not stated),-0.5%,·,·,-1%
COc1ccc(-n2nc(C(=O)NCC(=O)NC3CCCCCC3)c3ccccc3c2=O)c(OC)c1,0.5%,-5%,·,17%
Cc1cc(C)c(C)c(S(=O)(=O)N2CCC(C(=O)NC3=NCCS3)CC2)c1C,5.1%,·,·,0%
Cc1cc(C)c(S(C)(=O)=O)c(NN)n1,-2.5%,0%,10,-13%
NC(=S)c1c(Cl)cc(C(F)(F)F)cc1Cl,1.3%,29%,-5,-10%
Cn1nc(C(F)(F)F)c(-c2ccc(F)cc2)c1NC(=O)CSCC(=O)O,-0.3%,3%,-10,-9%
O=C(Cn1cnc2ccccc21)N/N=C/c1ccc([N+](=O)[O-])cc1,4.1%,-2%,1,-26%
NNC(=O)c1ccc(Cl)cc1Cl,-3.5%,-15%,-2,-10%
COc1ccc(/C=C2\N=C3CCCN3C2=O)cc1,-6.1%,-68%,-14,-1%
Cc1nc(SCC(N)=O)[nH]c(=O)c1Cc1ccc(OC(C)C)cc1,-4.4%,-1%,-30,2%
Cc1ccc(C(=O)NC(=S)Nc2ccc(N3CCOCC3)cc2)cc1,0.3%,-17%,-7,7%
O=C(OCC(=O)N1CCOCC1)c1ccc(O)cc1,1.3%,-10%,·,8%
CC(=O)Nc1cccc(NC(=O)c2sc3ncn(CC(=O)N4CCCCC4)c(=O)c3c2C)c1,-4.5%,-2%,-6,-12%
CCOc1nc(-c2ccc(C)cc2)ccc1-c1noc(-c2cccnc2)n1,·,-1%,-5,·
CN1CCN(C(=S)c2cn(CCOc3ccccc3)c3ccccc23)CC1,-2.3%,-30%,-6,0%
O=C1/C(=C\Nc2ccccc2)CCN1c1ncccn1,2.3%,-45%,4,-9%
O=C(Nc1ccc2c(c1)OCCO2)C(c1ccc(F)cc1)N1CCCCC1 (configuration not stated),1.0%,-21%,5,25%
C=C(C)COc1ccc2c(CC)cc(=O)oc2c1C,5.9%,-22%,-3,5%
COc1ccccc1NC(=O)c1ccc2c(=O)n3c(nc2c1)CCC3,3.4%,·,·,18%
Cc1nc(Nc2ccc(O)cc2)c2c3c(sc2n1)CCCC3,-4.2%,?,-5,-4%
O=C(CSCc1ccccc1)N/N=C/c1ccccc1OCc1ccccc1,-2.0%,-12%,7,12%
COc1ccc(-c2c3c(nc4sc5c(=O)[nH]c(C)nc5c24)CCC3)cc1,1.9%,-5%,3,14%

# The list goes on:
SMILES,Rango complex inh,miR-21 reporter,GLA inh pH 4.5,Rango dissoc inh
O=C(Nc1ccc2oc(-c3cccnc3)nc2c1)c1cc2ccccc2o1,3.1%,-9%,8,19%
CC(NS(=O)(=O)c1ccc2c(c1)CC(=O)N2C)c1ccccc1 (configuration not stated),0.7%,0%,·,-4%
CC1CCCC(NC(=O)c2cccc(S(=O)(=O)N3CCCCC3)c2)C1C (configuration not stated),-0.3%,-1%,·,-8%
COc1ccc(N(C)S(=O)(=O)c2cccc(C(=O)OCC(=O)Nc3sc4c(c3C#N)CCCCC4)c2)cc1,0.9%,-14%,3,2%
CC(C)N=C1NN=C(c2cccs2)C(CC(=O)O)S1 (configuration not stated),-2.5%,-13%,-3,10%
CCc1ccccc1NC(=O)C1CCN(S(C)(=O)=O)CC1,0.1%,·,·,-1%
COc1cc2c(c(OC)c1)C(c1cccc(OC)c1OC)CC(=O)N2 (configuration not stated),2.8%,-9%,-4,6%
CCC(C)(C)n1nnnc1C(c1cc2cc(C)cc(C)c2[nH]c1=O)N1CCCC1 (configuration not stated),?,-3%,2,-21%
Cc1ccc(S(=O)(=O)Cc2cn3cccnc3n2)cc1,3.1%,-7%,9,1%
O=C(Nc1cccc(Cl)c1)NC1(C(=O)NCc2cccs2)CCCCC1,5.2%,1%,0,4%
CCOc1ccc(CCNC(=O)c2cccc(S(=O)(=O)N3CCCC3)c2)cc1OCC,-4.1%,·,·,-4%
CCc1ccc(C(=O)c2cncc(Br)c2)cc1,-2.5%,-21%,10,19%
